Compound activity: PubChem BioAssay, Broad Institute
FGF22 binding = shifts melting point of recombinant human FGF22; Q9HCT0; recombinant FGF22 thermal shift, SYPRO orange fluorescence; percent of sucrose octasulfate shift, DMSO zero; calls only at 9.99 µM; 340,000 tested, 1.5% active;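 active = melting point raised past a set limit in the mean and every replicate; three in four hits are not shown here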
Target sequence (Q9HCT0 whole entry, looked up): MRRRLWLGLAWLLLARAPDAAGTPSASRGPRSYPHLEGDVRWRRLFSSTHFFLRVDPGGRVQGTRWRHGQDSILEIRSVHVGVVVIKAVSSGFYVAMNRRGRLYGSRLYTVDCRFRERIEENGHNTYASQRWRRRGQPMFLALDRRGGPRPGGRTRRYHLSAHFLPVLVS
Calls only; i = inactive. Not all compounds are listed, so the mix of outcomes need not match the whole.

SMILES	FGF22 binding
O=C(N[C@H](C(=O)N1CCC[C@H]1C(=O)NCc1ccccc1)c1ccccc1)c1ccc(Cl)c(Cl)c1	i
C[C@H]1CN([C@@H](C)CO)S(=O)(=O)c2ccc(-c3ccccc3)cc2O[C@@H]1CN(C)Cc1cccnc1	i
CCCNC(=O)Nc1ccc2c(c1)C(=O)N(C)[C@@H]1CC[C@H](CC(=O)NC3CCC3)O[C@@H]1CO2	i
C[C@@H]1CN([C@@H](C)CO)C(=O)c2cc(NS(=O)(=O)c3ccc(Cl)cc3)ccc2O[C@H]1CN(C)S(=O)(=O)c1ccccc1	i
CCOC(=O)N[C@@H](Cc1cccnc1)C(=O)N1CCC[C@H]1C(=O)NC1CCCC1	i
C[C@@H]1CCCCO[C@@H](CN(C)Cc2ccc3c(c2)OCO3)[C@H](C)CN([C@H](C)CO)C(=O)c2cc(NS(=O)(=O)c3cn(C)cn3)ccc2O1	i
CN(C)C(=O)c1cccc(-c2ccc3c(c2)[C@H]2[C@H](CCN2C(=O)c2ccc(F)cc2)[C@@H](CO)N3C)c1	i
CN(C)C(=O)C[C@@H]1C[C@H]2c3cc(NC(=O)Nc4ccccc4)ccc3O[C@H]2[C@@H](CO)O1	i
CC(C)C[C@H](NC(=O)c1ccccc1)C(=O)N1CCC[C@H]1C(=O)NCc1ccccc1	i
CCNC(=O)C[C@H]1CC[C@H]2[C@H](COc3ccc(NC(=O)c4ccccc4Cl)cc3C(=O)N2C)O1	i
CN(C)C(=O)C[C@H]1C[C@H]2c3cc(NC(=O)Nc4ccccc4)ccc3O[C@H]2[C@@H](CO)O1	i
CCCC(=O)Nc1ccc2c(c1)C(=O)N(C)[C@@H]1CC[C@@H](CC(=O)NCCOC)O[C@H]1CO2	i
COC(=O)C[C@@H]1CC[C@@H]2[C@H](COc3ccc(NS(=O)(=O)c4ccccc4F)cc3C(=O)N2C)O1	i
COC(=O)c1ccc(CN2C(=O)[C@]3(OCCC=C[C@H]3C)c3ccccc32)cc1	i
CO[C@@H]1CN(C)C(=O)c2cc(NC(C)=O)ccc2OC[C@H](C)N(C(=O)C2CC2)C[C@@H]1C	i
COC(=O)C[C@@H]1CC[C@@H]2[C@H](COC[C@@H](O)CN2CCC(F)(F)F)O1	i
CCC(=O)N1C[C@@H](O)COC[C@@H]2O[C@H](CC(=O)NCc3ccccc3Cl)CC[C@H]21	i
C[C@@H]1CCCCO[C@@H](CN(C)C(=O)c2ccncc2)[C@H](C)CN([C@@H](C)CO)C(=O)c2cc(NC(=O)NC3CCCCC3)ccc2O1	i
CO[C@@H]1CN(C)C(=O)c2cc(NS(C)(=O)=O)ccc2OC[C@@H](C)N(CCC(F)(F)F)C[C@@H]1C	i
COc1ccc(CN(C)C[C@@H]2OCCCC[C@H](C)Oc3ccc(NC(=O)Cc4ccccc4)cc3C(=O)N([C@@H](C)CO)C[C@H]2C)cc1	i

Laid out differently: two of the compounds above.
FGF22 binding,Compound
i,CO[C@@H]1CN(C)C(=O)c2cc(NS(C)(=O)=O)ccc2OC[C@@H](C)N(CCC(F)(F)F)C[C@@H]1C
i,COc1ccc(CN(C)C[C@@H]2OCCCC[C@H](C)Oc3ccc(NC(=O)Cc4ccccc4)cc3C(=O)N([C@@H](C)CO)C[C@H]2C)cc1

Remaining list, next part.
SMILES	FGF22 binding
CCCNC(=O)C[C@@H]1C[C@@H]2c3cc(NC(=O)CN(C)C)ccc3O[C@@H]2[C@H](CO)O1	i
C[C@H](CO)N1C[C@H](C)[C@H](CN(C)C(=O)Cc2ccccc2)OCCCC[C@H](C)Oc2ccc(NS(=O)(=O)c3ccc(F)cc3)cc2C1=O	i
Cc1cc(N2CCN(CC(C)(C)O)C[C@@H]2C)ccc1N1CCN(Cc2ccccc2)[C@H](C)C1	i
C[C@H]1CCCCO[C@H](CN(C)S(=O)(=O)c2ccc(F)cc2)[C@@H](C)CN([C@@H](C)CO)C(=O)c2cc(NC(=O)Nc3ccc(F)cc3)ccc2O1	i
Cc1noc(C)c1NC(=O)N(C)C[C@H]1OCCCC[C@H](C)Oc2ccc(NS(C)(=O)=O)cc2C(=O)N([C@@H](C)CO)C[C@H]1C	i
CCCC(=O)Nc1ccc2c(c1)C(=O)N(C)[C@H]1CC[C@@H](CC(=O)NCCOC)O[C@H]1CO2	i
C[C@@H]1CCCCO[C@H](CN(C)CC2CCCCC2)[C@H](C)CN([C@@H](C)CO)C(=O)c2cc(NS(=O)(=O)c3ccc(Cl)cc3)ccc2O1	i
C=CCN=C1NC(c2cccc(C(F)(F)F)c2)C(C(=O)OC)=C(C)N1Cc1ccccc1C(F)(F)F (configuration not stated)	i
CCCC(=O)Nc1ccc2c(c1)C(=O)N(C)[C@H]1CC[C@H](CC(=O)OC)O[C@H]1CO2	i
O=C(C[C@@H]1CC[C@H]2NC[C@H](O)COC[C@@H]2O1)NCCN1CCCCC1	i
Cc1noc(C)c1S(=O)(=O)Nc1ccc2c(c1)C(=O)N([C@@H](C)CO)C[C@@H](C)[C@H](CN(C)C(=O)CCCN(C)C)OCCCC[C@@H](C)O2	i
CCC(=O)N1CC[C@@H]2[C@H]1c1cc(-c3cccc(C#N)c3)ccc1N[C@@H]2CO	i
COC(=O)C1=C(C)N(Cc2ccccc2C(F)(F)F)C(=NCc2ccc(OC)cc2)NC1c1ccc(F)cc1 (configuration not stated)	i
C[C@@H]1CCCCO[C@@H](CN(C)Cc2ccc(C(F)(F)F)cc2)[C@H](C)CN([C@@H](C)CO)C(=O)c2cc(NC(=O)C3CCCCC3)ccc2O1	i
CCCNC(=O)C[C@@H]1C[C@H]2c3cc(NC(=O)Nc4ccccc4)ccc3O[C@H]2[C@H](CO)O1	i
Cc1noc(C)c1NC(=O)Nc1ccc2c(c1)CC(=O)N([C@@H](C)CO)C[C@@H](C)[C@H](CN(C)C(=O)NC(C)C)O2	i
COc1cccc(-c2ccc3c(c2)[C@@H]2C[C@H]4[C@@H](CN2CC3)[C@H](C)ON4C)c1	i
COC(=O)C1=C(C)N(CC(C)C)C(=S)NC1c1cccc(OC)c1 (configuration not stated)	i
O=C(Cc1ccccc1)N1CC[C@@H]2[C@@H](CO)Nc3ccc(-c4ccc(F)cc4)cc3[C@@H]21	i
COC(=O)C[C@H]1CC[C@@H]2[C@H](COc3ccc(NC(=O)c4cccs4)cc3C(=O)N2C)O1	i
C[C@@H]1CCCCO[C@H](CN(C)C(=O)NC2CCCCC2)[C@@H](C)CN([C@H](C)CO)C(=O)c2cc(NS(C)(=O)=O)ccc2O1	i
CNC[C@@H]1OCCCC[C@@H](C)Oc2ccc(NS(=O)(=O)c3cn(C)cn3)cc2C(=O)N([C@H](C)CO)C[C@H]1C	i
CC(=O)N1[C@H](C(=O)NC2CCC2)[C@@H](CO)[C@@H]2Cn3c(ccc(-c4ccccc4)c3=O)[C@@H]21	i
Cn1cc(CC(=O)Nc2ccc(Oc3cccnc3)cc2)c2ccccc21	i
O=C(C[C@@H]1C[C@@H]2c3cc(NC(=O)Nc4ccccc4)ccc3O[C@@H]2[C@H](CO)O1)NCc1cccnc1	i
Cc1[nH]nc2c1C(c1ccccc1)N(c1ccccc1)C2=O (configuration not stated)	i
O=C(C[C@H]1CC[C@@H]2[C@H](COC[C@@H](O)CN2C(=O)Nc2cc(Cl)cc(Cl)c2)O1)N1CCOCC1	i
Cc1ccc(C2NC(=O)c3[nH]nc(-c4ccccc4)c32)cc1 (configuration not stated)	i
C[C@H]1CCCCO[C@H](CN(C)Cc2ccncc2)[C@@H](C)CN([C@@H](C)CO)C(=O)c2cc(NC(=O)Nc3ccc(F)cc3)ccc2O1	i
O=C(N[C@H](Cc1ccccc1)C(=O)NCc1ccc2c(c1)OCO2)[C@H]1O[C@@H](n2ccc(=O)[nH]c2=O)[C@H](O)[C@@H]1O	i
C[C@@H]1CCCCO[C@H](CN(C)Cc2ccccc2)[C@H](C)CN([C@@H](C)CO)C(=O)c2cc(NC(=O)c3ccccc3)ccc2O1	i
CN(Cc1ccccc1)C(=O)c1cccc(NC(=O)Cc2ccc(NC(=O)C3CCCN(S(=O)(=O)c4cccc([N+](=O)[O-])c4)C3)cc2)c1 (configuration not stated)	i
COc1ccc(S(=O)(=O)N2C[C@@H](O)COC[C@H]3O[C@@H](CC(=O)NCCN4CCCCC4)CC[C@@H]32)cc1	i
OC(c1ccccc1)(c1ccccc1)C1CCN(CCCOc2cc(F)cc(F)c2)CC1	i
CC(=O)N1CCN(c2ccc(N3CCN(C(C)=O)[C@@H](C)C3)c(C)c2)[C@H](C)C1	i
Cc1ccccc1-c1cccc2[nH]c3c(c12)CCN1C(=O)[C@H]2[C@H](C)ON(C)[C@H]2C[C@@H]31	i
COc1ccc(C2CC(=O)C(c3ccc(C(F)(F)F)cc3)=CN2Cc2ccccc2)cc1 (configuration not stated)	i
CCC(=O)Nc1ccc2c(c1)C(=O)N(C)C[C@H](OC)[C@@H](C)CN(C(=O)C1CCC1)[C@H](C)CO2	i
C[C@H](CO)N1C[C@H](C)[C@H](CN(C)C(=O)Nc2ccc(C(F)(F)F)cc2)OCCCC[C@H](C)Oc2ccc(NC(=O)Nc3ccc(C(F)(F)F)cc3)cc2C1=O	i
C[C@H]1CN([C@@H](C)CO)C(=O)Cc2cc(NC(=O)CCN3CCOCC3)ccc2O[C@H]1CN(C)Cc1ccc(C(=O)O)cc1	i

Reformatted in markdown: 7 of the compounds above
| smiles | FGF22 binding |
| --- | --- |
| Cc1ccccc1-c1cccc2[nH]c3c(c12)CCN1C(=O)[C@H]2[C@H](C)ON(C)[C@H]2C[C@@H]31 | i |
| CC(=O)N1CCN(c2ccc(N3CCN(C(C)=O)[C@@H](C)C3)c(C)c2)[C@H](C)C1 | i |
| OC(c1ccccc1)(c1ccccc1)C1CCN(CCCOc2cc(F)cc(F)c2)CC1 | i |
| C[C@H]1CN([C@@H](C)CO)C(=O)Cc2cc(NC(=O)CCN3CCOCC3)ccc2O[C@H]1CN(C)Cc1ccc(C(=O)O)cc1 | i |
| COc1ccc(C2CC(=O)C(c3ccc(C(F)(F)F)cc3)=CN2Cc2ccccc2)cc1 (configuration not stated) | i |
| CCC(=O)Nc1ccc2c(c1)C(=O)N(C)C[C@H](OC)[C@@H](C)CN(C(=O)C1CCC1)[C@H](C)CO2 | i |
| C[C@H](CO)N1C[C@H](C)[C@H](CN(C)C(=O)Nc2ccc(C(F)(F)F)cc2)OCCCC[C@H](C)Oc2ccc(NC(=O)Nc3ccc(C(F)(F)F)cc3)cc2C1=O | i |

Later entries:
SMILES	FGF22 binding
C[C@@H]1CCCCO[C@@H](CN(C)Cc2ccc(C(=O)Nc3ccccc3N)cc2)[C@@H](C)CN([C@H](C)CO)C(=O)c2cc(NC(=O)Nc3ccc4c(c3)OCO4)ccc2O1	i
COc1ccc(S(=O)(=O)Nc2ccc3c(c2)CC(=O)N([C@H](C)CO)C[C@@H](C)[C@@H](CN(C)C(=O)Nc2ccc(F)cc2)O3)cc1	i
CN1c2ccc(-c3ccc(F)cc3)cc2[C@H]2[C@H](CCN2C(=O)c2ccncc2)[C@H]1CO	i
CCCNC(=O)C[C@@H]1C[C@H]2c3cc(NC(=O)CN(C)C)ccc3O[C@H]2[C@@H](CO)O1	i
CC(C)C(=O)Nc1ccc2c(c1)C(=O)N(C)[C@H]1CC[C@@H](CC(=O)NCc3cccc(F)c3)O[C@H]1CO2	i
C[C@H](CO)N1C[C@H](C)[C@@H](CN(C)Cc2ccc(C(F)(F)F)cc2)OCCCC[C@H](C)Oc2ccc(NC(=O)Cc3ccccc3)cc2C1=O	i
C[C@H]1CN([C@@H](C)CO)C(=O)Cc2cc(NC(=O)Nc3ccc4c(c3)OCO4)ccc2O[C@@H]1CN(C)C(=O)Nc1ccc(F)cc1	i
C[C@@H]1CN([C@H](C)CO)C(=O)c2cc(NC(=O)C3CC3)ccc2O[C@H]1CN(C)Cc1ccc(Oc2ccccc2)cc1	i
CNC(=O)C[C@H]1CC[C@@H]2[C@@H](COc3ccc(NS(=O)(=O)c4ccc(F)cc4)cc3C(=O)N2C)O1	i
COc1ccc(NC(=O)Nc2ccc3c(c2)C(=O)N([C@H](C)CO)C[C@H](C)[C@H](CN(C)S(=O)(=O)c2ccc(OC)cc2)OCCCC[C@H](C)O3)cc1	i
CNC[C@H]1OCCCC[C@H](C)Oc2ccc(NS(=O)(=O)c3ccc(C)cc3)cc2C(=O)N([C@H](C)CO)C[C@@H]1C	i
C[C@@H]1CCCCO[C@H](CN(C)Cc2ccc(C(F)(F)F)cc2)[C@@H](C)CN([C@@H](C)CO)C(=O)c2cc(NC(=O)Nc3ccccc3)ccc2O1	i
COc1ccc(S(=O)(=O)N(C)C[C@@H]2OCCCC[C@@H](C)Oc3ccc(NC(=O)CCCCCC(=O)Nc4ccccc4N)cc3C(=O)N([C@H](C)CO)C[C@@H]2C)cc1	i
C[C@@H]1CN([C@@H](C)CO)C(=O)Cc2cc(NC(=O)Cn3cnnn3)ccc2O[C@@H]1CN(C)S(C)(=O)=O	i
CN1C(=O)c2cc(NC(=O)c3ccc(F)c(F)c3)ccc2OC[C@H]2O[C@@H](CC(=O)O)CC[C@H]21	i
COc1ccc(S(=O)(=O)N(C)C[C@@H]2Oc3ccc(NS(=O)(=O)c4ccc(Cl)cc4)cc3CC(=O)N([C@@H](C)CO)C[C@@H]2C)cc1	i
CNC(=O)C[C@H]1CC[C@@H]2[C@H](COc3ccc(NC(=O)Nc4cccc(F)c4)cc3C(=O)N2C)O1	i
CN(C)CC(=O)Nc1ccc2c(c1)[C@H]1C[C@H](CC(=O)N3CCOCC3)O[C@@H](CO)[C@H]1O2	i
Cc1noc(C)c1NC(=O)Nc1ccc2c(c1)CC(=O)N([C@@H](C)CO)C[C@H](C)[C@H](CN(C)C(=O)NC(C)C)O2	i
COc1cccc(NC(=O)N2C[C@@H](O)COC[C@H]3O[C@H](CC(=O)NCc4ccccc4F)CC[C@@H]32)c1	i
CC(C)[C@H](NC(=O)CC1CCCC1)C(=O)N1CCC[C@H]1C(=O)NCCc1ccccc1Cl	i
O=C(C[C@@H]1C[C@@H]2c3cc(NS(=O)(=O)c4ccc(F)cc4)ccc3O[C@@H]2[C@H](CO)O1)NCC1CC1	i
COc1ccc(S(=O)(=O)Nc2ccc3c(c2)C(=O)N([C@@H](C)CO)C[C@H](C)[C@H](CN(C)S(=O)(=O)c2ccc(Cl)cc2)O3)cc1	i
